RE007 growth inh = less growth of the S. pombe RE007 Vpr strain; 0.21% of 360,000 active; S. pombe RE007 Vpr strain, BacTiter-Glo ATP luminescence, 24 h; control for the full effect not named in the record; Potency, µM (doses to about 92.2 µM), inactives show top-dose activity change, negative = less growth; AID 651644; active = well fitted falling curve with a large enough effect; inconclusive = small, poorly fitted or top-dose-only effect; inactive = no such curve, though single readings can be large or run the other way;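 note: % is set by controls: 0 for no effect and ±100 for the full control effect; nearly all actives have a fitted effect of over 50% in size; the assay follows cell death caused by Vpr and the record does not say whether a fall means rescue or toxicity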
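Fission yeast RE007 carrying one integrated HIV-1 vpr copy, seeded at OD 0.01 in PMG+AL medium with 23 nL pinned compound. Grown 24 h at 30 degrees; viability read by BacTiter-Glo luminescence after 5 min.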
Marburg entry inh = inhibitors of Marburg virus binding or cell entry; Potency, µM (top dose mostly 37.8 µM), for inactives: at the top dose activity change, negative = inhibition, usual class: inhibitors; Marburg virus pseudotyped entry inhibition, cell reporter; control for the full effect not named in the record; about a third of the inactives were read at about 46 µM; 1.8% of 300,000 active; active = well fitted inhibition curve with a large enough effect; inconclusive = small, poorly fitted or top-dose-only effect, or effect the other way; inactive = flat fitted curve, though single readings scatter; tested in HEK293 cells; about a fifth of its hits are not listed in these tables; note: % is set by controls: 0 for no effect and ±100 for the full control effect; luciferase read-out
SARS PLP yeast = SARS-CoV PLP inhibition in yeast; S. cerevisiae expressing SARS-CoV PLpro, growth rescue; control for the full effect not named in the record; Potency, µM (doses to about 32.9 µM), for the others: at the highest dose activity, positive = growth rescue; 0.19% of 330,000 active; AID 485353; note: 0% is about no effect; nearly all actives have a fitted effect of over 55% in size; growth read by luminescence after 48 h
2A StopGo = FMDV 2A StopGo reporter, luciferase signal | human cells with a luciferase reporter of 2A StopGo recoding; control for the full effect not named in the record | Potency, µM (highest dose often 57.9 µM), for the others: top-dose signal change, negative = less light | 1.2% of 410,000 active; active = well fitted falling curve with a large enough effect; inconclusive = small, poorly fitted or top-dose-only effect; inactive = no such curve, though single readings can be large or run the other way; tested in HEK293T cells; note: % is set by controls: 0 for no effect and ±100 for the full control effect; nearly all actives have a fitted effect of over 45% in size; luciferase light after 4 h
Lassa entry inh = inhibitors of Lassa virus binding or cell entry; 1.2% of 300,000 active; AID 540256; Potency, µM (series often up to 37.9 µM), inactives show at the highest dose activity change, negative = inhibition, actives largely listed as inhibitors; Lassa virus pseudotype entry inhibition, cell reporter; control for the full effect not named in the record; active means well fitted inhibition curve with a large enough effect; inconclusive means small, poorly fitted or top-dose-only effect, or effect the other way; inactive means flat fitted curve, though single readings scatter; tested in HEK293 cells; note: % is set by controls: 0 for no effect and ±100 for the full control effect; nearly all actives have a fitted effect of over 50% in size; luciferase read-out
NS1 inh = influenza NS1 inhibition; S. cerevisiae slowed by influenza A NS1, growth recovery by OD600; Potency, µM (top dose mostly 46.1 µM), for the others: top-dose activity, positive = more growth; 0.4% of 270,000 active; note: actives are rising curves; nearly all actives have a fitted effect of over 50% in size
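A cell-based growth assay was used: compounds that relieve NS1-induced slow growth of budding yeast raise OD600. Assay medium was yeast nitrogen base with ammonium sulphate and -URA supplement, pH 6.0, with 2% galactose.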
Cruzain inh noDet = inhibitors of Trypanosoma cruzi cruzain without detergent | Potency, µM, for the others: max response, negative = inhibition, usual class: inhibitors | purified cruzain, Z-FR-AMC fluorescence, no detergent | AID 1476 | 2.3% of 200,000 active; active = well fitted curve in the direction sought with a large enough effect; inconclusive = small, poorly fitted or top-dose-only effect, or another doubt; inactive = no such curve, though single readings can be large; an effect the other way counts as inactive or inconclusive;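 note: plate controls were enzyme without inhibitor for no effect and buffer without enzyme for full effect; nearly all actives have a fitted effect of over 40% in size; top concentration of the series not given in the record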
Target sequence (P25779 123-467 limits assumed): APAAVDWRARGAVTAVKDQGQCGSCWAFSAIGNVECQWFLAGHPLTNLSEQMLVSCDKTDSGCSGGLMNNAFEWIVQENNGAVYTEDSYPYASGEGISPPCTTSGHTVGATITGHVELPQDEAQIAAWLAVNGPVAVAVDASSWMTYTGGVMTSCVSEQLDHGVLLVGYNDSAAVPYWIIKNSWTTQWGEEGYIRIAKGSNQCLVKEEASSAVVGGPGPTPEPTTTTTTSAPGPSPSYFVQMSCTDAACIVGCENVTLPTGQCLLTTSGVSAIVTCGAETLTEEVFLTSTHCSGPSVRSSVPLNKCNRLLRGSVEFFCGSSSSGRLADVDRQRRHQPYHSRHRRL
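Purified cruzain at 1.5 nM, pre-incubated 15 min with compound at room temperature in 100 mM sodium acetate pH 5.5, 5 mM DTT, 0.00005% Triton X-100. Reaction started with 2 uM Z-FR-AMC; AMC fluorescence increase over 60 s gives rate.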
Cruzain inh Det = inhibitors of Trypanosoma cruzi cruzain with detergent; P25779; purified cruzain, Z-FR-AMC fluorescence, 0.01% Triton; Potency, µM, without a hit: max response, negative = inhibition, actives largely listed as inhibitors; 0.43% of 200,000 active; active = well fitted curve in the direction sought with a large enough effect; inconclusive = small, poorly fitted or top-dose-only effect, or another doubt; inactive = no such curve, though single readings can be large; an effect the other way counts as inactive or inconclusive;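 note: plate controls were neutral wells for no effect and buffer without enzyme for full effect; nearly all actives have a fitted effect of over 40% in size; top concentration of the series not given in the record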
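Enzyme 1.5 nM, Z-FR-AMC 2 uM, NaOAc 100 mM pH 5.5, DTT 5 mM, Triton X-100 0.01%; 15 min RT compound preincubation; kinetic ex360/em450, 60 s delta.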
An asterisk follows results filed as active; ? = inconclusive; nt = no result given; & = joins results of further samples; [ ] = dose if it differs, or a comment. Unless noted, calls come from the whole dose curve; as a rule, active means well fitted rising curve with a large enough effect; inconclusive means small, poorly fitted or top-dose-only effect; inactive means no such curve, though single readings can be large or run the other way. Potency is the fitted concentration of half-maximal effect.

SMILES	RE007 growth inh	Marburg entry inh	SARS PLP yeast	2A StopGo	Lassa entry inh	NS1 inh	Cruzain inh noDet	Cruzain inh Det
CCC1CN(C(=O)N2CCC(C(=O)NCc3ccc(F)cc3)CC2)c2ccccc2O1 (stereo not given)	-8%	nt	-2%	-9%	nt	-3%	nt	nt
O=C(CSc1n[nH]c(=O)n1C1CC1)NCc1ccccc1Cl	2%	nt	-1%	8%	nt	7%	nt	nt
Cc1ccc(Nc2nc3ccc(C)cc3nc2-n2nc(C)cc2C)c(C)c1	nt	9%[46.1 µM]	nt	-8%	20%[46.1 µM]	nt	-10%	-1.9%
COc1cc(NC(=O)c2ccc(N3CC4CC(C3)c3cccc(=O)n3C4)c(NC(=O)c3ccncc3)c2)cc(OC)c1OC (stereo not given)	-2%	nt	18%	-3%	nt	-12%	nt	nt
COc1cc(/C=N/NC(=O)CCn2nc(C)cc2C)ccc1O	1%	nt	1%	-23%	nt	-5%	nt	nt
CCc1nnc(NC(=O)CSc2nnc(-c3ccoc3C)n2-c2ccc(C)cc2)s1	6%	2%&-2%	-7%	-9%	-19%	-4%	7%	-0.4%
CC(C)(C)OC(=O)N1CCC[C@H]1C(=O)N/N=C/c1cccc2nccnc12	-12%	nt	-2%	22%	nt	3%	nt	nt
COc1ccc(C2(c3ccc(OC)cc3)NC(=O)N(Cn3nnc4ccccc4c3=O)C2=O)cc1	-5%	?	3%	-10%	?	-7%	-27%	-3.6%
CCOC(=O)C1CCC(CNCc2ccccc2C)CC1 (stereo not given)	-7%	6%	1%	-20%	-30%	nt	nt	nt
CCn1c(/C=C/c2ccc([N+](=O)[O-])o2)nc2ccccc2c1=O	-1%	?	-42%	-36%	3.7µM*	-221%	6%	-3.2%
N#C/C(=C\c1ccccc1)C(=O)Nc1cc(S(=O)(=O)N2CCOCC2)ccc1N1CCCC1	-6%	-2%[46.1 µM]	5%	?	-4%[46.1 µM]	12%	?	-4.0%
Cc1ccc(-n2c(N)c(C(=O)NCc3cccnc3)sc2=S)cc1	-15%	?	-3%	0%	17%	-4%	-2%	1.7%
Cn1c(=O)[nH]c(=O)c2c1nc(NC1CCCCC1)n2CCO	8%	nt	-1%	-3%	nt	5%	nt	nt
CCOC(=O)C(NC(=O)Nc1ccc(F)cc1F)(Oc1ccccc1)C(F)(F)F (stereo not given)	-15%	2%	-1%	-7%	-1%	10%	-5%	1.9%
CCc1ccc(C(=O)NCc2cccs2)s1	4%	0%	-5%	31%[activator]	21%	-5%	6%	9.4%
CCCCNC(=O)CSc1nc2nc(C)c(Cc3c(F)cccc3Cl)c(C)n2n1	nt	-7%[46.1 µM]	nt	-17%	-15%[46.1 µM]	nt	-3%	-2.1%
CCNC(=O)NCCc1c[nH]c2ccc(Cl)cc12	-2%	?	-4%	28%	-11%	-7%	3%	-0.2%
N#Cc1c(N)nc2c3c(sc(=N)c2c1N)NC(=O)CC3c1ccccc1 (stereo not given)	21%	nt	4%	-4%	4%	24%	1%	-1.6%
C=C(C)CNC(=S)NNC(=O)CCn1c2ccccc2c2ccccc21	-9%	?	16%	-15%	0%	-6%	-4%	-2.4%
Cc1ccc(-c2noc(-c3ccccc3NC(=O)c3ccccc3)n2)cc1	nt	27%[46.1 µM]	nt	22%	8%[46.1 µM]	nt	-13%	-1.5%
Cn1c(SCc2nc3ccccc3s2)nnc1-c1cccs1	4%	5%	?	43%[activator]	9%	-28%	-3%	-2.4%
Oc1ccc(-c2csc(-c3c[nH]c4ccccc34)n2)c(O)c1	7%	?	-43%	-17%	?	-22%	?	-5.8%
CCOc1ccc(CCNC(=O)C2CCN(S(=O)(=O)N3CCOCC3)CC2)cc1OCC	-8%	-2%&-2%	2%	-12%	0%	-12%	-2%	0.6%
O=C(COc1ccc(F)cc1)N(c1ccccn1)C1CCCCC1	-8%	-2%	-13%	0%	15%	-8%	12%	-4.1%
COc1ccc(CCC(=O)Nc2nccs2)cc1OC	1%	-2%[46.1 µM]	1%	-19%	-20%[46.1 µM]	-2%	nt	nt
COC(=O)N/N=C(\C)c1ccc(Br)cc1	6%	?	8%	13%	3%	-14%	1%	-6.7%
Cc1ccc(S(=O)(=O)Nc2cc(S(=O)(=O)N3CCCCC3)ccc2N2CCOCC2)cc1	-13%	?	0%	21%	-29%[46.1 µM]	nt	nt	nt
CSCC(C)N1CCC(n2nccc2NC(=O)CCc2ccccc2)CC1 (stereo not given)	-8%	nt	-4%	13%	nt	-4%	nt	nt
COc1ccc(Cl)cc1S(=O)(=O)N(C)CC(=O)NCc1ccc2c(c1)OCO2	-11%	-8%[46.1 µM]	0%	5%	-10%	-5%	nt	nt
O/N=C1\CCCc2c1nc(-c1ccccc1F)n2O	2%	2%	2%	0%	14%	4%	nt	nt
CCC(C)NC(=O)C1CCN(S(=O)(=O)c2ccc3c(ccn3CC)c2)CC1 (stereo not given)	nt	nt	nt	0%	18%[46.1 µM]	nt	10%	3.4%
Cc1ccc(S(=O)(=O)N2CCOCC2)cc1NC(=O)c1cc2ccccc2oc1=O	29%	12%[46.1 µM]	2%	-2%	7%[46.1 µM]	nt	nt	nt
Cc1cnc(CN(C)Cc2nc(Cc3cccc(C(F)(F)F)c3)no2)[nH]1	2%	-26%[46.1 µM]	-1%	-19%	-28%	2%	nt	nt
CCC(C)NC(=O)CN1C(=O)CC(C)(C)S(=O)(=O)c2ccccc21 (stereo not given)	-23%	nt	6%	-5%	nt	7%	-17%	4.3%
CCc1cccc(NC(=O)C2CCN(S(=O)(=O)c3ccc4c(c3)CC(C)N4C(C)=O)CC2)c1 (stereo not given)	3%	nt	-1%	14µM*	nt	7%	nt	nt
COCCNC(=O)c1ccc(CSCc2cccc(Cl)c2)o1	0%	nt	0%	-12%	nt	-51%	nt	nt

Profiles from above. Screens in order: RE007 growth inh, Marburg entry inh, SARS PLP yeast, 2A StopGo, Lassa entry inh, NS1 inh, Cruzain inh noDet, Cruzain inh Det
COCCNC(=O)c1ccc(CSCc2cccc(Cl)c2)o1 as listed: 0%, nt, 0%, -12%, nt, -51%, nt, nt
COC(=O)N/N=C(\C)c1ccc(Br)cc1 as listed: 6%, ?, 8%, 13%, 3%, -14%, 1%, -6.7%

Additional entries follow:
SMILES	RE007 growth inh	Marburg entry inh	SARS PLP yeast	2A StopGo	Lassa entry inh	NS1 inh	Cruzain inh noDet	Cruzain inh Det
CC(C)(C)c1nc(SCC(=O)Nc2ccc(N3CCOCC3)cc2)c2ccccc2n1	-3%	?	-2%	-29%	?	11%	?	0.5%
Cc1cc(C)c(NC2=NCCCS2)c(C)c1	-15%	?	2%	11%	6%	17%	4%	8.2%
Cc1cc(C)cc(NC(=O)c2cccc(NC(=O)C3C4CC5OC(=O)C3C5C4)c2)c1 (stereo not given)	13%	-9%	8%	14%	-1%	0%	26%	-0.4%
CC(C)(C)N(Cc1ccccc1)C(=O)CCc1ccccc1	-19%	?	-1%	?	29%	?	nt	nt
Cc1ccc(NC(=O)N(CCC(=O)O)Cc2ccccc2)cc1	6%	-16%[46.1 µM]	1%	-13%	-22%	5%	nt	nt
C=CCOc1ccc(/C(O)=C2/C(=O)C(=O)N(CCN3CCOCC3)C2c2ccc(C)cc2)cc1 (stereo not given)	5%	0%	10%	-6%	-13%	-1%	?	-3.9%
CC(=O)Oc1ccc(OC(C)=O)c(SCCCCCN2CCOCC2)c1	-26%	16µM*	0%	?	?	-3%	12%	4.2%
N#Cc1ccccc1NC(=O)c1cccn(Cc2ccccc2)c1=O	nt	nt	nt	-22%	-6%[46.1 µM]	nt	-18%	-6.3%
COc1cc2c(c(OC)c1OC)C(=O)CC2	-16%	11%[46.1 µM]	0%	8%	4%[46.1 µM]	-9%	nt	nt
Cc1ccc(NC(=O)c2ccc(S(=O)(=O)NCc3ccco3)cc2)nc1	18%	-6%	3%	41%[activator]	-29%	nt	nt	nt
COc1ccc(-c2cc(C(F)(F)F)nc(SCC(=O)NCC(C)C)n2)cc1OC	nt	2%[46.1 µM]	nt	-17%	?	nt	23%	-0.2%
CCOc1ccc(NC(=O)CSc2nc3ccccc3c(=O)n2CCCC(=O)N2CCCC2)cc1	1%[3.69 µM]	5%	4%	-5%	-1%	7%	?	-0.2%
CCN(CC)CCCn1c2c(c(SCC(=O)Nc3cc(C)on3)nc1=O)CCC2	14%	?	-2%	7%	8%	nt	nt	nt
CC(=O)c1ccc(NC(=O)Cn2c(=O)n(Cc3ccco3)c(=O)c3sc4ccccc4c32)cc1	nt	-19%[46.1 µM]	nt	-20%	7%[46.1 µM]	nt	10%	-19%

Entries shown so far that contain an aryl methoxy group, in the order listed:
SMILES	RE007 growth inh	Marburg entry inh	SARS PLP yeast	2A StopGo	Lassa entry inh	NS1 inh	Cruzain inh noDet	Cruzain inh Det
COc1cc(NC(=O)c2ccc(N3CC4CC(C3)c3cccc(=O)n3C4)c(NC(=O)c3ccncc3)c2)cc(OC)c1OC (stereo not given)	-2%	nt	18%	-3%	nt	-12%	nt	nt
COc1cc(/C=N/NC(=O)CCn2nc(C)cc2C)ccc1O	1%	nt	1%	-23%	nt	-5%	nt	nt
COc1ccc(C2(c3ccc(OC)cc3)NC(=O)N(Cn3nnc4ccccc4c3=O)C2=O)cc1	-5%	?	3%	-10%	?	-7%	-27%	-3.6%
COc1ccc(CCC(=O)Nc2nccs2)cc1OC	1%	-2%[46.1 µM]	1%	-19%	-20%[46.1 µM]	-2%	nt	nt
COc1ccc(Cl)cc1S(=O)(=O)N(C)CC(=O)NCc1ccc2c(c1)OCO2	-11%	-8%[46.1 µM]	0%	5%	-10%	-5%	nt	nt
COc1cc2c(c(OC)c1OC)C(=O)CC2	-16%	11%[46.1 µM]	0%	8%	4%[46.1 µM]	-9%	nt	nt
COc1ccc(-c2cc(C(F)(F)F)nc(SCC(=O)NCC(C)C)n2)cc1OC	nt	2%[46.1 µM]	nt	-17%	?	nt	23%	-0.2%
